Ecoli rRNA inh: inhibits bacterial ribosomal RNA function over humanized ribosomes; GFP signal change (wild-type ribosome), % (no concentration beside the values); E. coli WT GFP vs humanized-ribosome RFP mutants, fluorescence, 24 h; stronger effect = lower value; DMSO median 0, no signal -100; 1.6% of 350,000 active; AID 720706;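 active = significant combined selectivity score with lowered wild-type GFP, culture density cut under 30%, mutant RFP and density less affected; inactive = any of these conditions unmet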; also: one replicate is shown; some compounds called inactive have numbers as strong as hits
Ecoli rRNA inh OD600: second read-out of Ecoli rRNA inh, no call of its own (marks repeat the call); OD600 change, %; measured here: OD600 growth;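 optical density of the mix in the first replicate; 0 = DMSO median and -100 = no signal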
Ecoli rRNA inh RFP: recorded beside Ecoli rRNA inh, whose call it bears; RFP signal change, %; measured here: RFP humanized mutant strains;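 first replicate; 0 = DMSO median and -100 = no signal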
The depositor's hits bear a star; & = joins results of further samples.

Molecule	Ecoli rRNA inh OD600	Ecoli rRNA inh RFP	Ecoli rRNA inh
CN1C(=O)c2cc(NS(=O)(=O)c3ccc(F)cc3)ccc2OC[C@H]2O[C@@H](CC(=O)NCC(F)(F)F)CC[C@H]21	-4	1.7	-6
CCN1[C@@H]2Cn3c(ccc(-c4ccccc4)c3=O)[C@H]1[C@@H](C(=O)NCCCN1CCOCC1)[C@@H]2CO	15	0.3	2
CCC(=O)NC[C@H]1[C@@H](c2ccc(-c3cccc(F)c3)cc2)[C@H](CO)N1C(=O)CC	-8	0.6	-3
CO[C@H]1CN(C)C(=O)c2cc(NS(=O)(=O)CC(F)(F)F)ccc2OC[C@@H](C)NC[C@@H]1C	2	-1.1	1
C[C@H]1CN([C@@H](C)CO)C(=O)CCCn2cc(nn2)CO[C@@H]1CN(C)C(=O)Nc1cccc(F)c1	6&-9	-1.2&-0.5	2&-1
C[C@@H]1CN([C@H](C)CO)C(=O)c2ccccc2-c2ccccc2CO[C@H]1CN(C)C(=O)Oc1ccccc1	9	0.5	0
C[C@H](CO)N1C[C@H](C)[C@H](CN(C)S(=O)(=O)c2cn(C)cn2)Oc2ccc(NC(=O)Cc3ccccc3)cc2CC1=O	1	-3.2	2
CO[C@@H]1CN(C)C(=O)c2cc(NS(=O)(=O)c3ccc(Cl)cc3)ccc2OC[C@H](C)N(C(=O)NC(C)C)C[C@H]1C	-8	-1.2	-2

Following part.
Molecule	Ecoli rRNA inh OD600	Ecoli rRNA inh RFP	Ecoli rRNA inh
CO[C@H]1CN(C)C(=O)c2ccc(NS(C)(=O)=O)cc2OC[C@H](C)N(CC2CCOCC2)C[C@@H]1C	3	1.1	0
CCC(=O)Nc1ccc2c(c1)C(=O)N(C)[C@H]1CC[C@@H](CC(=O)NCC3CC3)O[C@@H]1CO2	7	-0.3	7
Cc1ccccc1-c1cnc2c(c1)C(=O)N([C@@H](C)CO)C[C@H](C)[C@@H](CN(C)CC1CCCCC1)O2	-10	12	3
COC(=O)c1cc2c(c3c4cc(OC)ccc4n(S(=O)(=O)c4cccc(C)c4)c13)C(=O)N(Cc1ccc(C(F)(F)F)cc1)C2	13	9.4	9
CC1=C(C(=O)N(C)C)CC(CC(=O)NC2CC2)C(=O)N1CCC1=CCCCC1 (stereo unspecified)	17	-4.3	-1
COc1ccc(S(=O)(=O)N[C@@H]2C=C[C@H](CC(=O)NCCc3ccccc3)O[C@@H]2CO)cc1	0	-5.8	-5
CC1(C(=O)Nc2ccc3c(c2)OCCO3)CCC(=O)N1C1CCN(Cc2ccccc2)CC1 (stereo unspecified)	6	-4.1	6
COc1cccc(-c2ccc3c(c2)[C@@H]2[C@@H](CCN2S(=O)(=O)c2ccccc2C)[C@@H](CO)N3)c1	-1	2.0	-4

Carrying on.
Molecule	Ecoli rRNA inh OD600	Ecoli rRNA inh RFP	Ecoli rRNA inh
CCN(C[C@@H]1N[C@@H](CO)[C@H]1c1ccc(-c2cccc(F)c2)cc1)C(=O)COC	7	-0.7	0
C=CCNc1ncnc2c1ncn2[C@H]1CN(CCN2CCOCC2)C[C@@H](CO)O1	15	-1.8	7
CO[C@H]1CC[C@@H]2CCOc3ccc(C#N)cc3C(=O)N(C)C[C@@H](C)C(=O)N(C)C[C@@H]1O2	-9	0.4	1
C[C@@H]1CN([C@H](C)CO)C(=O)c2cc(C#Cc3ccccn3)cnc2O[C@H]1CN(C)C(=O)CCN1CCCCC1	9	1.6	4
C[C@H]1CN([C@@H](C)CO)C(=O)c2cccc(NC(=O)Nc3ccc4c(c3)OCO4)c2O[C@@H]1CN(C)S(=O)(=O)c1cccs1	1	1.9	0
COc1ccc(NC(=O)N(C)C[C@H]2Oc3ccc(NC(=O)Nc4ccc(C(F)(F)F)cc4)cc3CC(=O)N([C@@H](C)CO)C[C@H]2C)cc1	-10	2.1	-4
COC(=O)/C=C1\OCc2ccccc21	5	8.7	2
C[C@@H]1CN([C@H](C)CO)C(=O)c2cc(C3=CCCC3)cnc2O[C@H]1CN(C)C(=O)C1CC1	2	-3.1	1

The results go on.
Molecule	Ecoli rRNA inh OD600	Ecoli rRNA inh RFP	Ecoli rRNA inh
COc1ccc(NC(=O)N2CCCCN3[C@@H](CO)[C@@H](c4ccc(-c5ccccc5C)cc4)[C@@H]3C2)cc1	-72	-11	-58
C[C@@H]1CN([C@H](C)CO)C(=O)Cc2cc(NC(=O)NC3CCCCC3)ccc2O[C@@H]1CN(C)Cc1ccccc1	-16	-0.2	2
CCC(Sc1nc2ccsc2c(=O)n1Cc1ccc(C(=O)O)cc1)C(=O)Nc1ccc(Cl)cc1 (stereo unspecified)	-13	-2.4	-13
C[C@H]1CN([C@@H](C)CO)C(=O)c2cccc(NC(=O)c3nc4ccccc4s3)c2O[C@H]1CN(C)Cc1ccc(Cl)c(Cl)c1	20	1.7	4
C[C@@H]1CCCCO[C@@H](CN(C)C)[C@H](C)CN([C@H](C)CO)C(=O)c2cc(NC(=O)c3ccncc3)ccc2O1	6	-4.9	7
C[C@@H]1CN([C@H](C)CO)C(=O)c2cc(NC(=O)C3CC3)ccc2O[C@H]1CN(C)Cc1ccncc1	6	1.2	2
Cc1ccc(S(=O)(=O)Nc2ccc3c(c2)C(=O)N([C@@H](C)CO)C[C@@H](C)[C@@H](CN(C)S(=O)(=O)c2ccc(C)cc2)O3)cc1	-8	2.2	0
COc1ccccc1C(NC(=O)C1CCN(CCOc2ccc(Cl)cc2Cl)CC1)c1ccccn1 (stereo unspecified)	-80	-8.0	-46

Other records
Molecule	Ecoli rRNA inh OD600	Ecoli rRNA inh RFP	Ecoli rRNA inh
CCCCN(C(=O)c1cccc(-n2cnnn2)c1)c1c(N)n(CCCC)c(=O)[nH]c1=O	15	4.1	15
C[C@H](NC(=O)C[C@@H]1CC[C@H]2[C@@H](COC[C@@H](O)CN2C)O1)c1ccccc1	6	-2.1	2
C[C@H]1CN([C@@H](C)CO)S(=O)(=O)c2ccc(-c3cncnc3)cc2O[C@H]1CN(C)C(=O)Cc1ccncc1	-5	-1.8	0
CN1C(=O)c2cc(NC(=O)c3cnccn3)ccc2OC[C@@H]2O[C@H](CC(=O)NCC3CCCCC3)CC[C@@H]21	8	0.2	0
Cc1noc(C)c1S(=O)(=O)N(C)C[C@@H]1OCCCC[C@H](C)Oc2ccc(NC(=O)C3CCCCC3)cc2C(=O)N([C@@H](C)CO)C[C@@H]1C	-9	1.7	2
C[C@H]1CN([C@@H](C)CO)C(=O)CCCn2cc(nn2)CO[C@H]1CN(C)C(=O)OCc1ccccc1	-1	2.7	1
O=C(C[C@@H]1CC[C@@H](NC(=O)C2CCC2)[C@@H](CO)O1)NC1CCC1	3	-0.7	0
O=C(C[C@@H]1CC[C@@H]2[C@H](COC[C@H](O)CN2S(=O)(=O)c2ccccc2)O1)Nc1ccc(-c2ccccc2)cc1	-15	13	-1

Other compounds follow.
Molecule	Ecoli rRNA inh OD600	Ecoli rRNA inh RFP	Ecoli rRNA inh
CSc1ccccc1NC(=O)CN(C)C(=O)CNC(=O)c1ccc(Oc2ccccc2)cc1	-48	6.1	-20
COCC(=O)N(C)C[C@H]1Oc2ncc(C3=CCCC3)cc2C(=O)N([C@H](C)CO)C[C@H]1C	7	-1.2	5
COc1ccc2c3c([nH]c2c1)[C@H](CO)N(C(=O)Nc1ccc(F)cc1)CC31CCN(S(=O)(=O)c2cn(C)cn2)CC1	-2	2.5	3
CCN1C[C@@H](C)[C@H](OC)CN(C)C(=O)c2cc(NC(=O)c3ccno3)ccc2OC[C@H]1C	3	-0.4	1
CCCCCCN1C[C@H](O)[C@@H](n2cc(COC(=O)c3ccccc3)nn2)C[C@@H]1c1ccccc1	-27	5.0	-9
C[C@H](CO)N1C[C@H](C)[C@H](CN(C)S(=O)(=O)c2cn(C)cn2)OCCCC[C@H](C)Oc2ccc(N(C)C)cc2C1=O	13	1.3	3
C[C@H]1CN([C@@H](C)CO)C(=O)c2cc(NC(=O)Nc3ccc(F)cc3)ccc2O[C@@H]1CN(C)S(=O)(=O)c1cn(C)cn1	4	-0.5	-1
O=C(NC[C@@H]1[C@@H](c2ccccc2)[C@@H](CO)N1C(=O)Cc1cccnc1)C1CCC1	-2	-2.3	1

The results go on.
Molecule	Ecoli rRNA inh OD600	Ecoli rRNA inh RFP	Ecoli rRNA inh
COc1ccc2c3c([nH]c2c1)[C@@H](CO)N(S(C)(=O)=O)CC31CN(C(=O)c2cccnc2)C1	-3	-0.8	0
C[C@@H]1CN([C@H](C)CO)C(=O)Cc2cc(NS(=O)(=O)c3ccccc3)ccc2O[C@H]1CN(C)Cc1ccc2c(c1)OCO2	-11	4.7	-8
C[C@@H]1CN([C@@H](C)CO)C(=O)c2cc(-c3cccnc3)cnc2O[C@@H]1CN(C)C(=O)C1CCC1	6	1.2	6
C[C@H](CO)N1C[C@H](C)[C@@H](CN(C)C(=O)Nc2ccc(F)cc2)Oc2ccc(NS(=O)(=O)c3cccs3)cc2C1=O	9	-0.8	1
O=C(C[C@@H]1CC[C@H]2[C@@H](COC[C@H](O)CN2C(=O)c2cccnc2)O1)NCc1ccc(-c2ccccc2)cc1	1	16	0
Cc1ccc(F)c(S(=O)(=O)NC(=O)C2(C)CCN2C(=O)CC(c2ccccc2)c2ccccc2)c1 (stereo unspecified)	-2	1.3	-6
N#C[C@@H]1[C@H](c2ccccc2)[C@@H](CO)N1C(=O)C1CCCC1	7	-0.5	1
C[C@@H]1CCCCO[C@@H](CN(C)S(=O)(=O)c2ccc(F)cc2)[C@@H](C)CN([C@@H](C)CO)C(=O)c2cc(NC(=O)c3ccncc3)ccc2O1	-5	2.1	-1

More results:
Molecule	Ecoli rRNA inh OD600	Ecoli rRNA inh RFP	Ecoli rRNA inh
CC(=O)N1[C@H](CO)[C@H](c2ccccc2)[C@@H]1CNC(=O)CN1CCOCC1	4	1.7	3
CO[C@@H]1CC[C@H]2CCOc3c(C#N)cccc3C(=O)N(C)CC3(CCCCC3)CC(=O)N(C)C[C@H]1O2	1	0.8	0
COc1ccc2c3c([nH]c2c1)[C@@H](CO)N(C(=O)c1cccc(F)c1)CC31CN(C(=O)c2cccc(F)c2)C1	-11	6.6	-7
CO[C@@H]1CN(C)C(=O)c2cc(NC(=O)Nc3ccccc3)ccc2OC[C@H](C)NC[C@H]1C	-1	-0.4	0
O=C(C1CC1)N1CC(=O)N2[C@@H](CO)[C@@H](c3ccc(C#CCc4ccccc4)cc3)[C@@H]2C1	-2	-1.5	0
O=C(c1ccccc1)N1CCC2CCN(S(=O)(=O)c3ccccc3)CC21 (stereo unspecified)	-5	3.6	7
C[C@H](CO)N1C[C@H](C)[C@H](CN(C)C(=O)NC2CCCCC2)Oc2ccc(NC(=O)c3ccncc3)cc2C1=O	-5	2.3	0
C[C@H](NC(=O)C[C@H]1CC[C@H](NC(=O)c2cccnc2)[C@H](CO)O1)c1ccccc1	-1	-2.1	0

Next compounds.
Molecule	Ecoli rRNA inh OD600	Ecoli rRNA inh RFP	Ecoli rRNA inh
Cc1ccc(S(=O)(=O)N(C)C[C@H]2OCc3cn(nn3)CCCC(=O)N([C@H](C)CO)C[C@@H]2C)cc1	-4&-3	-1.2&-0.5	4&0
C[C@H](CO)N1C[C@H](C)[C@H](CN(C)Cc2ccc(-c3ccccc3)cc2)Oc2c(NC(=O)c3nc4ccccc4s3)cccc2C1=O	9	1.9	2
Cc1noc(C)c1S(=O)(=O)Nc1ccc2c(c1)CC(=O)N([C@H](C)CO)C[C@H](C)[C@@H](CN(C)C(=O)Nc1ccc3c(c1)OCO3)O2	-1	-0.8	2
Cc1ccc(S(=O)(=O)N2CC[C@@H]3[C@@H](CO)Nc4ccc(-c5ccccc5F)cc4[C@@H]32)cc1	-8	1.8	-5
CC(=O)N1[C@@H]2c3ccc(-c4ccccc4F)c(=O)n3C[C@@H]2[C@@H](CO)[C@@H]1C(=O)NCC1CC1	5	-2.6	3
O=C(Nc1ccccc1Cl)c1cc(C2CCCCN2S(=O)(=O)c2ccccc2)on1 (stereo unspecified)	-14	5.1	-5
O=S(=O)(N[C@H]1CC[C@@H](CCn2cc(C3(O)CCCC3)nn2)O[C@H]1CO)c1ccccc1	-3	-4.4	-4
CN1C(=O)c2cc(NC(=O)C3CC3)ccc2OC[C@@H]2O[C@@H](CC(=O)NCc3cccc(F)c3)CC[C@@H]21	6	-1.3	0

Additional structures.
Molecule	Ecoli rRNA inh OD600	Ecoli rRNA inh RFP	Ecoli rRNA inh
COc1ccccc1NC(=O)N1CC(=O)N2[C@@H](CO)[C@H](c3ccc(C#CC4CC4)cc3)[C@@H]2C1	-12	0.4	-2
CC(C)NC(=O)Nc1ccc2c(c1)CC(=O)N([C@H](C)CO)C[C@H](C)[C@@H](CN(C)C(=O)Nc1ccc(F)cc1)O2	2	4.0	4
C[C@@H]1CN([C@H](C)CO)C(=O)c2cc(NS(=O)(=O)c3ccccc3)ccc2O[C@@H](C)CCCCO[C@@H]1CN(C)C(=O)C1CCCCC1	-3	2.4	-3
C[C@@H]1CN([C@H](C)CO)S(=O)(=O)c2ccc(C#CC3CCCC3)cc2O[C@H]1CN(C)Cc1cccnc1	-23	9.5	-11

Reprinted at random: 4 entries already listed.
Molecule	Ecoli rRNA inh OD600	Ecoli rRNA inh RFP	Ecoli rRNA inh
CC(C)NC(=O)Nc1ccc2c(c1)CC(=O)N([C@H](C)CO)C[C@H](C)[C@@H](CN(C)C(=O)Nc1ccc(F)cc1)O2	2	4.0	4
C[C@@H]1CN([C@H](C)CO)C(=O)c2cc(NS(=O)(=O)c3ccccc3)ccc2O[C@@H](C)CCCCO[C@@H]1CN(C)C(=O)C1CCCCC1	-3	2.4	-3
C[C@@H]1CN([C@H](C)CO)S(=O)(=O)c2ccc(C#CC3CCCC3)cc2O[C@H]1CN(C)Cc1cccnc1	-23	9.5	-11
COc1ccccc1NC(=O)N1CC(=O)N2[C@@H](CO)[C@H](c3ccc(C#CC4CC4)cc3)[C@@H]2C1	-12	0.4	-2

Some of the compounds tested. The share of hits here may be higher or lower than overall.
